High-throughput results as filed in PubChem.
NS1 function inh – qHTS Assay for Inhibitors of Influenza NS1 Protein Function; S. cerevisiae slowed by influenza A NS1, growth recovery by OD600; 0.4% of 270,000 active; AID 2326, 2010; Potency, µM (doses to about 46.1 µM), for inactives: top-dose activity, positive = more growth; further: actives are rising curves; nearly all actives have a fitted effect of over 50% in size
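Growth recovery, yeast-based: influenza A NS1 expressed in S. cerevisiae causes slow growth, and suppressors are detected by OD600. The parent strain without NS1 is used as positive control.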
MARV entry inh – qHTS for inhibitors of binding or entry into cells for Marburg Virus | Marburg virus pseudotyped entry inhibition, cell reporter; control for the full effect not named in the record; about a third of the inactives were read at about 46 µM | 1.8% of 300,000 active | Potency, µM (titrated, usually from 37.8 µM), without a hit: at the top dose activity change, negative = inhibition, hits mostly inhibitors | AID 540276, 2011; active = well fitted inhibition curve with a large enough effect; inconclusive = small, poorly fitted or top-dose-only effect, or effect the other way; inactive = flat fitted curve, though single readings scatter; tested in HEK293 cells; about a fifth of its hits are not listed in these tables; further: on the % scale 0 is the no-effect control and ±100 the full control effect; luciferase read-out
RE007 growth inh – qHTS Assay for Inhibitors of the HIV-1 protein Vpr. S. pombe RE007 Vpr strain, BacTiter-Glo ATP luminescence, 24 h; control for the full effect not named in the record. Potency, µM (highest dose often 92.2 µM), for inactives: at the highest dose activity change, negative = less growth. 0.21% of 360,000 active. AID 651644, 2012; active = well fitted falling curve with a large enough effect; inconclusive = small, poorly fitted or top-dose-only effect; inactive = no such curve, though single readings can be large or run the other way;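 further: on the % scale 0 is the no-effect control and ±100 the full control effect; nearly all actives have a fitted effect of over 50% in size; the assay follows cell death caused by Vpr and the record does not say whether a fall means rescue or toxicity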
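Fission yeast RE007 carrying one integrated HIV-1 vpr copy, seeded at OD 0.01 in PMG+AL medium with 23 nL pinned compound. Grown 24 h at 30 degrees; viability read by BacTiter-Glo luminescence after 5 min.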
StopGo reporter – High Throughput Screening for Foot and Mouth Disease Virus Antivirals. human cells with a luciferase reporter of 2A StopGo recoding; control for the full effect not named in the record. Potency, µM (series often up to 57.9 µM), for inactives: top-dose signal change, negative = less light. 1.2% of 410,000 active; active = well fitted falling curve with a large enough effect; inconclusive = small, poorly fitted or top-dose-only effect; inactive = no such curve, though single readings can be large or run the other way; tested in HEK293T cells; further: on the % scale 0 is the no-effect control and ±100 the full control effect; nearly all actives have a fitted effect of over 45% in size; luciferase light after 4 h
LASV entry inh – qHTS for Inhibitors of binding or entry into cells for Lassa Virus; Lassa virus pseudotype entry inhibition, cell reporter; control for the full effect not named in the record; Potency, µM (top dose mostly 37.9 µM), for the others: top-dose activity change, negative = inhibition, usual class: inhibitors; 1.2% of 300,000 active; active means well fitted inhibition curve with a large enough effect; inconclusive means small, poorly fitted or top-dose-only effect, or effect the other way; inactive means flat fitted curve, though single readings scatter; tested in HEK293 cells; further: on the % scale 0 is the no-effect control and ±100 the full control effect; nearly all actives have a fitted effect of over 50% in size; luciferase read-out
Cruzain inh Det – qHTS Assay for Promiscuous and Specific Inhibitors of Cruzain (with detergent) | Cruzipain (Trypanosoma cruzi), P25779 | purified cruzain, Z-FR-AMC fluorescence, 0.01% Triton | Potency, µM, inactives show max response, negative = inhibition, most hits filed as inhibitors | 0.43% of 200,000 active | AID 1478, 2009; active means well fitted curve in the direction sought with a large enough effect; inconclusive means small, poorly fitted or top-dose-only effect, or another doubt; inactive means no such curve, though single readings can be large; an effect the other way counts as inactive or inconclusive;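 further: plate controls were neutral wells for no effect and buffer without enzyme for full effect; nearly all actives have a fitted effect of over 40% in size; top concentration of the series not given in the record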
Target sequence (P25779 123-467 limits assumed): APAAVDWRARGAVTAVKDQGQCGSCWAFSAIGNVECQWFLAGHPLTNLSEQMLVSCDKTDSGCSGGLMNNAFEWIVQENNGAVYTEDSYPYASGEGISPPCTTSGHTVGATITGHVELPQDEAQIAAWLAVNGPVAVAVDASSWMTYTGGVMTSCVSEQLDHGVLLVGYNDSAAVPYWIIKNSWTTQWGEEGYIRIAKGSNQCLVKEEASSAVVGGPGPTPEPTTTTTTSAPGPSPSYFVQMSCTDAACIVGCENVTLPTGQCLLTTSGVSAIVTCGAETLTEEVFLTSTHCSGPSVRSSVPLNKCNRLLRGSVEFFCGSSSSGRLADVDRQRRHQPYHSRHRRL
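Cruzain (1.5 nM) preincubated 15 min at RT with compound in 100 mM sodium acetate pH 5.5, 5 mM DTT, 0.01% Triton X-100. Reaction started with 2 uM Z-FR-AMC; AMC fluorescence (ex 360/em 450 nm) change over 60 s gave rate.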
Cruzain inh noDet – qHTS Assay for Promiscuous and Specific Inhibitors of Cruzain (without detergent); Cruzipain (Trypanosoma cruzi), P25779; purified cruzain, Z-FR-AMC fluorescence, no detergent; Potency, µM, for inactives: max response, negative = inhibition, hits mostly inhibitors; 2.3% of 200,000 active; AID 1476, 2009; active means well fitted curve in the direction sought with a large enough effect; inconclusive means small, poorly fitted or top-dose-only effect, or another doubt; inactive means no such curve, though single readings can be large; an effect the other way counts as inactive or inconclusive;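 further: plate controls were enzyme without inhibitor for no effect and buffer without enzyme for full effect; nearly all actives have a fitted effect of over 40% in size; top concentration of the series not given in the record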
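Detergent-free condition (0.00005% Triton X-100) in acetate buffer pH 5.5 with DTT. 1.5 nM enzyme and compound were pre-mixed 15 min, then 2 uM Z-FR-AMC substrate added; reaction progress from fluorescence change between first and third reads (60 s).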
SARS PLpro yeast – qHTS of Yeast-based Assay for SARS-CoV PLP; S. cerevisiae expressing SARS-CoV PLpro, growth rescue; control for the full effect not named in the record; Potency, µM (titrated, usually from 32.9 µM), for the others: at the highest dose activity, positive = growth rescue; 0.19% of 330,000 active; AID 485353, 2010; further: 0% is about no effect; nearly all actives have a fitted effect of over 55% in size; growth read by luminescence after 48 h
* marks the source's active call; other numbers are inactive results; ? = inconclusive; nt = not tested or not shown; [ ] = dose if it differs, or a comment. Unless noted, the call rests on the fitted dose curve; in most records, active means well fitted rising curve with a large enough effect; inconclusive means small, poorly fitted or top-dose-only effect; inactive means no such curve, though single readings can be large or run the other way. Potency means the concentration at half of the fitted maximal effect.

SMILES	NS1 function inh	MARV entry inh	RE007 growth inh	StopGo reporter	LASV entry inh	Cruzain inh Det	Cruzain inh noDet	SARS PLpro yeast
CCn1cc(S(=O)(=O)Nc2ncccn2)cn1	6%	3%[46.1 µM]	4%	1%	?	nt	nt	-1%
O=S(=O)(c1cccc2nsnc12)N1CCc2ccccc2C1	3%	-10%	-29%	-10%	4%	6.0%	-2%	1%
Cc1ccc(/C=C(\C#N)C(=O)Nc2ccc(Br)cc2)o1	nt	nt	nt	56%[activator]	14%[46.1 µM]	-0.2%	-13%	nt
CC1CC(C)CN(S(=O)(=O)c2ccc(NC(=O)C3CSC4(C)CCC(=O)N34)cc2)C1 (configuration not stated)	nt	-30%	-12%	-2%	?	nt	nt	-6%
Cc1cc(C)cc(NS(=O)(=O)c2ccc(Oc3ncc(C(F)(F)F)cc3Cl)cc2)c1	-16%	-17%	4%	-23%	?	-5.1%	17%	-18%
COc1cc2c(cc1OC)C(NC(=O)C(F)(F)F)C/C2=N\O (configuration not stated)	nt	-3%[46.1 µM]	-7%	-22%	19%[46.1 µM]	nt	nt	3%
O=C(c1cc(-c2ccc(O)cc2)on1)N1CCN(c2ccc(F)cc2)CC1	-71%	nt	6%	-30%	nt	nt	nt	14%
C#Cc1ccc([C@@H]2C=C(C(=O)N3CCN(Cc4ccc5c(c4)OCO5)CC3)O[C@H](OCC)[C@H]2CCCO)cc1	-7%	nt	-4%	-11%	nt	nt	nt	-1%
COc1cccc(NC(=O)CN(C)C(=O)CC2CCCC2)c1	nt	-1%[46.1 µM]	-8%	5%	17%	nt	nt	nt
CCC1CCCCN1CCCNC(=O)c1cn(C)c2ccc(S(=O)(=O)N3CCOCC3)cc2c1=O (configuration not stated)	25%	nt	5%	-7%	nt	nt	nt	4%
O=C(COc1ccccc1)NCC(=O)N/N=C/c1ccc(Br)cc1	18%	3%	-6%	13%	0%	nt	nt	-2%
Cc1ccsc1-c1n[nH]c(=S)n1CC(C)C	5%	-4%	13%	-12%	18%	-1.7%	7%	8%
O=C(CNC(=O)COc1ccccc1)NCCc1ccccn1	nt	-17%[46.1 µM]	-9%	-1%	18%	nt	nt	2%
CC(Sc1nnc(-c2cccs2)n1Cc1ccccc1)C(=O)NCc1ccc2c(c1)OCO2 (configuration not stated)	-55%	1%	-1%	-26%	?	1.2%	-3%	0%
CCOC(=O)c1c(OCCO)noc1N	-1%	-8%[46.1 µM]	3%	-21%	0%[46.1 µM]	nt	nt	0%
Cc1ccnc(NC(=O)c2cc([N+](=O)[O-])cc([N+](=O)[O-])c2)c1	nt	5%[46.1 µM]	13%	-12%	-1%[46.1 µM]	nt	nt	4%
CCCNC(=O)Nc1ccc2c(c1)N(C)C(=O)c1ccccc1S2	8%	-3%	7%	27%	?	2.4%	5%	0%
O=C1CCCN1c1ccc(S(=O)(=O)NCCc2ccc(Cl)cc2)cc1	-7%	1%	-13%	11%	0%	6.5%	-7%	-6%
COC(=O)c1ccc(NCCC(=O)O)cc1	6%	2%	7%	-17%	0%	0.9%	13%	12%
CCOc1ccc(C(=O)NCC(=O)NC(C)c2ccc(-n3ccnc3)cc2)cc1OCC (configuration not stated)	6%	2%	-8%	-14%	?	nt	nt	6%
COc1ccc(CC(=O)OCC(=O)Nc2cc(S(=O)(=O)N3CCOCC3)ccc2N2CCCC2)cc1	-2%	?	5%	5%	2%	nt	nt	1%
O=C(CN1CCN(CC(=O)Nc2ccc3c(c2)OC2(CCCCC2)O3)CC1)Nc1cccc(F)c1	nt	?	17%	?	?	nt	nt	nt
CCN1CCN(Cc2coc3ccc(C)cc3c2=O)CC1	2%	?	-25%	25%	0%	22%	?	1%
CC(CC(=O)Nc1ccc(F)cc1)S(=O)(=O)c1cc2c3c(c1)CCN3C(=O)CC2 (configuration not stated)	nt	nt	nt	-5%	-5%[46.1 µM]	0.2%	0%	nt
O=Cc1ccc2cccnc2n1	nt	4%	13%	0%	-1%	nt	nt	1%
Cc1ccc(NC(=O)Cn2cnc([N+](=O)[O-])c2)cc1C	29%	-4%[46.1 µM]	-5%	-23%	21%[46.1 µM]	nt	nt	10%
COCC1CCCN(C(=O)c2cc(COc3ccc4ncccc4c3)on2)C1 (configuration not stated)	9%	?	16%	?	?	nt	nt	0%
Cc1ccc(C2=NS(=O)(=O)N(C)C(C(=O)NCc3ccccc3)=C2)cc1	13%	nt	11%	-21%	nt	nt	nt	-2%
COC(=O)c1cccc(NC(=O)/C=C/c2ccc3c(c2)OCO3)c1	-7%	?	-15%	-3%	11µM*	-13%	-3%	-49%
Cc1ccc(NC(=O)C2C3CCCCC32)cc1[N+](=O)[O-] (configuration not stated)	-1%	nt	-10%	49%[activator]	nt	nt	nt	-6%
Cc1ccc(S(=O)(=O)Nc2ccccc2)cc1[N+](=O)[O-]	nt	0%	-7%	23%	0%	nt	nt	nt
C=CCNc1nc2c3ccccc3n(C(C)=O)c2s1	-260%	1%[46.1 µM]	-6%	35%[activator]	?	-0.6%	-13%	-19%
Cc1ccccc1NC(=O)c1sc(Cl)nc1-c1ccccc1	0%	-5%	-2%	-30%	14%	4.1%	-1%	nt
C/C(=N\NC(=O)c1cc2ccccc2cc1O)c1cc2ccccc2o1	9%	?	-1%	-25%	-45%	nt	nt	0%
C=C(C)C(=O)Nc1cccc(C2=NOC3(C2)C[C@H](C(N)=O)N(C(=O)c2ccccc2)C3)c1 (some centres not stated)	-2%	nt	0%	1%	nt	nt	nt	4%
CC1=C(C(=O)Nc2ccc(Cl)cc2)C(CC(C)C)n2nc(SCc3ccccc3C)nc2N1 (configuration not stated)	nt	1%[46.1 µM]	nt	0%	18%[46.1 µM]	-1.1%	-12%	nt
O=C1N(c2ccccc2)C2CS(=O)(=O)CC2N1c1ccc(Br)cc1 (configuration not stated)	0%	-3%	-2%	-8%	6%	-0.6%	4%	2%
CN(CC(=O)NCCCc1ccccc1)S(=O)(=O)c1ccc(Br)cc1	-2%	-2%	0%	-26%	-4%	nt	nt	-5%
Cc1ccc(-c2nc3scc(CCNC(=O)Cc4ccc(Cl)cc4)n3n2)cc1	nt	nt	nt	-12%	-4%[46.1 µM]	-0.4%	-4%	nt
CCOC(=O)C(NC(=O)c1ccccc1Cl)(Nc1ccc(C(F)(F)F)cc1)C(F)(F)F (configuration not stated)	0%	?	-8%	-24%	-19%	-3.2%	3%	16%
COC(=O)c1ccc(SCC(=O)NC2CCCCC2)c([N+](=O)[O-])c1	8%	6%	5%	0%	20%	-5.6%	-5%	24%
CC(=O)c1cc2c(cc1NC(=O)CSc1nc3ccccc3o1)OCO2	3%	12%	7%	-16%	2%	-5.6%	-3%	-9%
Cc1onc(-c2c(F)cccc2Cl)c1C(=O)OCC(=O)NC(c1ccccc1)c1ccccc1	0%	-22%	2%	?	?	-3.9%	32µM*	-1%
CC(C)c1ccc(C2NC(=O)CCC2[N+](=O)[O-])cc1 (configuration not stated)	1%	nt	8%	-16%	nt	nt	nt	0%
Cn1c(NC(=O)COc2ccccc2)cc(=O)n(C)c1=O	?	?	9%	19%	-4%	-4.2%	-2%	-7%
C=CCN1C(=O)C(O)(CC(=O)c2ccc(OC)cc2OC)c2cc(Br)ccc21 (configuration not stated)	-13%	?	-12%	-3%	-16%	-3.6%	18%	8%
CN(C)c1ccc(NC(=O)CN2C(=O)c3ccccc3Sc3ccc(C(=O)N4CCCC4)cc32)cc1	nt	nt	nt	1%	-8%[46.1 µM]	-3.5%	-6%	nt
COc1ccc(NC(=O)C2CCCN(S(=O)(=O)c3ccc(Cl)cc3)C2)cc1 (configuration not stated)	nt	-10%[46.1 µM]	nt	1%	4%[46.1 µM]	0.5%	-1%	nt
CCCC1(c2ccccc2)NC(=O)N(CC(=O)NCc2ccc(C)cc2)C1=O (configuration not stated)	-1%	-27%	1%	-6%	-34%	nt	nt	-1%
Cc1ccc(S(=O)(=O)n2c(=O)oc3ccccc32)cc1	1%	nt	-5%	12%	nt	nt	nt	-8%
CCN1CCN(C(=O)c2ccccc2Nc2ccc(SC(F)F)cc2)CC1	5%	?	3%	41%[activator]	9%[46.1 µM]	nt	nt	0%
CCCC1(CCC)NC(=O)N(CC(=O)c2cc(C)n(-c3ccc4c(c3)OCO4)c2C)C1=O	-2%	22%	6%	-7%	-7%	-7.0%	11%	6%
Cc1ccc(OC(=O)COc2ccccc2C)c(-n2nc3ccccc3n2)c1	4%	?	-9%	nt	?	-9.5%	-28%	14%
CCC(C)n1c(=N)c(S(=O)(=O)c2ccccc2)cc2c(=O)n3ccccc3nc21 (configuration not stated)	nt	-12%[46.1 µM]	nt	-2%	25%[46.1 µM]	-0.2%	10%	nt
CSc1ccc(CN(C)C(=O)C23CC4CC(CC(Cl)(C4)C2)C3)cc1	-19%	-28%[46.1 µM]	11%	-8%	0%[46.1 µM]	nt	nt	-18%
Cc1cc(CNC(=O)COc2ccc([N+](=O)[O-])cc2)c2ccccc2n1	nt	-22%[46.1 µM]	-17%	?	-9%	nt	nt	-4%
Cc1ccc(N2C(=O)C3CCCN3C2=S)cc1C (configuration not stated)	-3%	-20%[46.1 µM]	2%	5%	nt	nt	nt	1%
COC(=O)c1[nH]c2ccccc2c1NC(=O)CCN1CCN(C2CCCCC2)CC1	-7%	nt	nt	nt	nt	1.0%	-9%	4%
O=C(O)C1CC(=O)N(Cc2cccnc2)C1 (configuration not stated)	0%	-8%	3%	nt	3%	19%	5%	7%
COc1cc(CNCCN2CCOCC2)ccc1OCC(=O)NC(C)(C)C	8%	29%[46.1 µM]	-15%	17%	1%[46.1 µM]	nt	nt	0%
